# Screening results: PubChem BioAssay, National Center for Advancing Translational Sciences (NCATS)
# miR-21 FLuc: raises the signal of a miR-21 reporter; HeLa miR-21 FLuc reporter, luciferase, 48 h; Potency, µM (highest dose often 38.3 µM), inactives show at the highest dose reporter change, positive = more light; 340,000 tested, under 10 active; active = well fitted rising curve with a large enough effect; inconclusive = small, poorly fitted or top-dose-only effect; inactive = no such curve, though single readings can be large or run the other way;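 also: % of control where 0% means no effect; miR-21 action dims this reporter so a rising signal means less miR-21 action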
#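 Using DMEM plus 10% FBS, HeLa miR-21-FLuc cells are incubated with test compounds (final up to about 40uM) for 48 hours; firefly luciferase signal is then imaged following reagent-mediated lysis.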
# Rango-impB inh: inhibitors of Rango-importin beta complex formation; Q14974; Rango CFP/YFP FRET sensor + importin beta, 45 min; Potency, µM (top dose mostly 92.2 µM), inactives show at the highest dose inhibition of complex formation; hit rate 0.031% among 340,000; AID 540263; active = rising FRET ratio curve, often small or poorly fitted; inconclusive = mostly compound fluorescence or quenching in the first reads; inactive = flat curves in all reads;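 also: potency is read from the fitted curve at half-maximal effect; 0% = DMSO wells and 100% = buffer wells lacking importin beta; nearly all actives have a fitted effect of over 15% in size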
# Target sequence (Q14974 whole entry, looked up): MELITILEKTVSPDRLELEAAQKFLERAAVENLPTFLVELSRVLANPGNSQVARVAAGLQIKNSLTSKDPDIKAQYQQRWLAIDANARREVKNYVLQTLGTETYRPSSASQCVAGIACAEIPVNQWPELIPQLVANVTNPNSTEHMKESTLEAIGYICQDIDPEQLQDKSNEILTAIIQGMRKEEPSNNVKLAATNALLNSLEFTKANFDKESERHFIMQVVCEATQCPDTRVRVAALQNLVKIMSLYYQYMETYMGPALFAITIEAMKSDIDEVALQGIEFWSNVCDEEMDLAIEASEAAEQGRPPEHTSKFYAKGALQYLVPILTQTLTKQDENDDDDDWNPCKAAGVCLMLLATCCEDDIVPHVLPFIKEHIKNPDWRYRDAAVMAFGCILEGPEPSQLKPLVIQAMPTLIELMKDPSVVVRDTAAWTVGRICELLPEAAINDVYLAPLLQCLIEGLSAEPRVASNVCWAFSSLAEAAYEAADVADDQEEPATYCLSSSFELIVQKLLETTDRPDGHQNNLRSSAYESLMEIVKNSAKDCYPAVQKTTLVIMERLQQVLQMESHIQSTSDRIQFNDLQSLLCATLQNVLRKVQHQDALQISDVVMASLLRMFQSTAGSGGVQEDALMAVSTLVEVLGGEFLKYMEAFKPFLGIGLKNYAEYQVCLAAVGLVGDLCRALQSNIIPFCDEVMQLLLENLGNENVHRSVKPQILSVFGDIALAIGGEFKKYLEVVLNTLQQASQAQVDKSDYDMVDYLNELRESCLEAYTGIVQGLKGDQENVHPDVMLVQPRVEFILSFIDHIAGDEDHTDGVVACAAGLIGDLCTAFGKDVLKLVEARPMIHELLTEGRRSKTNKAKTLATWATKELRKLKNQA
#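 FRET biosensor (snurportin 1 IBB flanked by EYFP and cerulean), 50 nM, with compound 5 min, then 0.125 microM importin beta in PBS, 1 mM DTT, 0.02% Tween-20, 0.1% BSA. CFP/YFP ratio read after 45 min at room temperature; pre-read flags interference.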
# Rango release inh: inhibition of RanGTP-driven Rango-importin beta dissociation | O95149+P62826 | Biochemical FRET Rango-importin beta, RanGTP-induced dissociation | Potency, µM (top dose mostly 46.1 µM), inactives show at the highest dose activity change, negative = inhibition | hit rate 0.071% among 340,000 | AID 540253; active means falling FRET ratio curve, often poorly fitted, with flat reads before Ran was added; inconclusive means other falling curves, or compound fluorescence or quenching; inactive means flat or rising ratio curve;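 also: potency is read from the fitted curve at half-maximal effect; % of control where 0% means no effect; nearly all actives have a fitted effect of over 45% in size; -100% = wells without RanGTP and RCC1; the record marks most hits as doubtful in a second field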
#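 Rango/importin beta premix (0.1/0.25 uM final), PBS + 1 mM DTT + 0.02% Tween-20 + 0.1% BSA; cpd 5 min RT; FRET pre-read; + RanGTP-RCC1 (0.6 uM Ran, 2 mM GTP, 0.2 uM RCC1); 45 min RT; FRET post-read, ex 430, em 486/530 nm.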
# GLA inh pH 4.5: blocks human alpha-galactosidase A at pH 4.5; P06280; 230,000 tested, under 10 active; activity change, negative = inhibition, % at 105 µM; purified enzyme, 4-MU-alpha-Gal fluorescence, pH 4.5; inconclusive = small, poorly fitted or top-dose-only inhibition, or a rising curve; inactive = flat fitted curve, though single readings scatter; no compound was filed as active;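 also: 0% = full activity with enzyme and -100% = basal without enzyme; dose as in the result columns while the protocol names 77 µM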
# Active calls of the source: *; ? = inconclusive; . = no result given; & = joins results of further samples. These rows are one share of the data (hit frequency here may not be typical).
# Every second line gives: Rango release inh | miR-21 FLuc | Rango-impB inh | GLA inh pH 4.5
Cc1ccc(-n2c(SCC(N)=O)nnc2-c2ccccn2)cc1
  -9% | -1% | -1.7% | 1
C/C(Cn1cnc([N+](=O)[O-])n1)=N\NC(=O)c1ccccc1F
  1% | . | 0.5% | .
Cc1cc(NC(=O)Cn2nnc3sc4c(c3c2=O)CCC(C(C)(C)C)C4)no1 (configuration not stated)
  -18% | -9% | -6.8% | 5
COc1cc(OC)cc(-c2c(C#Cc3ccsc3)c3cc(-c4ccc(OC)c(OC)c4)ccc3n2C)c1
  -4% | . | ? | .
CC1CC(C)(C)CC(=O)C1C(=O)c1ccccc1 (configuration not stated)
  -15% | . | -6.0% | .
CC(C)(C)CC(=O)O/N=C(\N)c1ccccn1
  0% | 0% | -1.0% | 6
COc1cc(C2CC(=O)Oc3c2c(=O)n(C)c2ccccc32)ccc1O (configuration not stated)
  -7% | -4%&-7% | 0.6% | 3
O=C(Cc1ccccc1)N/N=C/c1ccc(Cl)cc1Cl
  -3% | -17% | 4.1% | -15
O=C(N/N=C(\c1ccccc1)c1ccccn1)c1ccccc1Cl
  1% | 7% | 6.7% | .
COc1ccc(Nc2cccc(Cl)c2)c(C(=O)O)c1
  -25% | 3% | 4.0% | 6
Cc1c(NC(=O)C(C)Sc2ncnc3ccccc23)c(=O)n(-c2ccccc2)n1C (configuration not stated)
  0% | 1% | -2.3% | 5
CCCCCCN1N=C(C)C(C(=O)c2ccc(Cl)cc2)C1=O (configuration not stated)
  -1% | ? | 1.6% | 4
CCOc1cc(/C=N/n2c(COc3ccccc3)n[nH]c2=S)ccc1O
  7% | -12% | -0.8% | .
O=C(NC1(C(F)(F)F)NC(=O)N(Cc2cccnc2)C1=O)c1ccccc1 (configuration not stated)
  2% | -6% | -0.1% | -10
O=C1N/C(=N/O)S/C1=C/c1cccc([N+](=O)[O-])c1
  1% | -32% | -1.7% | 3
O=P1(c2ccccc2)C=Cn2c1cc1c2CCCC1 (configuration not stated)
  -5% | 4% | 2.1% | -1
COc1ccc(S(=O)(=O)N2CC(=O)Nc3ccccc32)cc1Cl
  -15% | -6% | -0.5% | .
O=C1CCN(C(=O)c2ccc(Cl)cc2)N1
  -3% | -2% | 5.0% | 0
Cc1c(N=C(N)/N=C(\N)Nc2ccc(Br)cc2)c(=O)n(-c2ccccc2)n1C
  -12% | -2% | -4.4% | -5
Cc1cc(C)nc(NS(=O)(=O)c2ccc(NC(=O)C3(c4ccccc4)CCCC3)cc2)n1
  10% | -1% | 0.1% | 4
CCN1CCN(C(=O)C2CCC(=O)N(CCCN3CCCC3=O)C2)CC1 (configuration not stated)
  -11% | 1% | 0.6% | .
Cc1cc(C)c(S(=O)(=O)n2cc(C(C)C(N)C(=O)O)c3ccccc32)c(C)c1 (configuration not stated)
  0% | . | -7.8% | .
COc1ccccc1N1CCN(CCN2C(=O)CC(=C3c4ccccc4-c4ccccc43)C2=O)CC1
  -17% | . | -1.3% | .
Cc1cc(NC(=O)CSc2nc3cc(Cl)ccc3s2)no1
  13% | -11% | 0.1% | 5
Cc1cc(=O)oc2cc(OCC(=O)N3CCN(c4ccc(F)cc4)CC3)ccc12
  2% | -3% | 0.7% | .
C[C@H](C[C@H](O)[C@H]1OC1(C)C)C1=C2C[C@H](O)C3[C@@]4(C)CCC(=O)C(C)(C)C4CC[C@]3(C)[C@@]2(C)CC1 (some centres not stated)
  -7% | . | -0.7% | .
Cc1[nH]nc(Sc2ccccn2)c1[N+](=O)[O-]
  5% | -32% | -2.1% | 2
C=CCNC(=O)c1ccc(OC)cc1OC
  -6% | -10% | 1.6% | -2
Fc1ccc(-n2c(-c3cc(C4CC4)[nH]n3)n[nH]c2=S)cc1Cl
  -4% | -23% | 4.7% | -5
O=C(c1noc2c1CCCC2)N1CCN(c2ccc(F)cc2)CC1
  -2% | -11% | -2.6% | 6
O=C(Nn1c(C2CCC2)nc2ccccc2c1=O)C1CCC1
  -6% | 0% | 5.6% | 4
O=C(NCCCn1ccnc1)/C(=C\c1ccc(Br)cc1)NC(=O)c1ccccc1F
  -7% | -2% | 12% | .
CC(=O)Nc1cccc(NC(=O)CSc2nnc(NC(=O)C3CC3)s2)c1
  28% | -7% | -3.1% | .
CCOc1ccc(C2NC(=O)c3ccccc3O2)cc1 (configuration not stated)
  2% | -5% | 9.3% | 11
C/C=C/C(=O)OCC(=O)Nc1c(Cl)cccc1Cl
  1% | 1% | 0.6% | -6
CC1CCCCC12NC(=O)N(CC(=O)OCc1ccccc1Cl)C2=O (configuration not stated)
  -1% | . | -0.1% | .
Cc1ccccc1NC(=O)COC(=O)Cc1ccsc1
  -27% | -1% | ? | -4
Cc1cc(C)c(C)c(S(=O)(=O)N2CCC(C(=O)N3CCCCCCC3)CC2)c1C
  0% | -3% | -1.6% | .
CC1CCCCN1C(=O)Nc1cccc(Cl)c1 (configuration not stated)
  2% | -25% | -4.3% | 3
Cc1ccccc1CS(=O)(=O)c1cn(CC(=O)N2CCC(C)CC2)c2ccccc12
  35% | 13% | -1.1% | -3
CC(=O)c1ccc(NC(=O)C2CCN(S(=O)(=O)c3cccnc3)CC2)cc1
  1% | 0% | -2.2% | .
NC(=O)C1CCN(C(=O)c2ccc3c(=O)n(Cc4ccco4)c(SCc4ccc([N+](=O)[O-])cc4)nc3c2)CC1
  4% | -3% | -1.3% | .
CN1CCN(C(=O)c2cc3cc(Cl)ccc3[nH]2)CC1
  2% | -26% | 0.3% | .
COc1ccc(CC2(CO)CCN(Cc3nc(C(C)C)cs3)CC2)cc1
  -2% | 14% | -0.8% | -4
CN(C)C(CNC(=O)c1cc(S(=O)(=O)N(C)c2ccccc2)ccc1Cl)c1ccccc1 (configuration not stated)
  2% | 15% | 3.4% | 3
O=C(O)c1ccc(-c2sc(Nc3ccccc3)n[n+]2-c2ccccc2)cc1
  -3% | -19% | 1.0% | .
C/C(=N\Nc1cc(C)nc(NCc2ccccc2)n1)c1cccc([N+](=O)[O-])c1
  -5% | 0% | -2.2% | -13
C/C(=N\OC(=O)c1ccc(C)cc1)c1c(C)nc2cc(C)ccn12
  -2% | 2% | 2.1% | -7
CCN(CC)c1ccc(NC(=O)c2ccccn2)cc1S(=O)(=O)Nc1ccccc1OC
  -3% | . | -1.1% | .
COc1ccc(/C=C/C2=NN(C)C(=O)CC2)cc1
  0% | -31% | -1.0% | 0
COc1cccc(N2CCN(C3CC(=O)N(c4ccc(Cl)cc4)C3=O)CC2)c1 (configuration not stated)
  -3% | -6% | 0.0% | 5
CC(C)n1c(SCC(=O)NC2CC2)nnc1C1CC1
  1% | 0% | 0.3% | .
CCC(C)(C)C1CCc2[nH]nc(C(=O)NCc3ccccn3)c2C1 (configuration not stated)
  10% | . | -3.1% | .
O=S(=O)(/N=C(/c1ccccc1)N1CCCCCC1)c1ccccc1
  -2% | -3% | 3.3% | 0
COc1ccc(C)cc1C1=Nc2ccccc2C1(C)C
  0% | -9% | 2.6% | -14
COc1ccc(NC(=O)/C(C#N)=C/c2ccc(-c3ccc(Cl)c(C(=O)O)c3)o2)cc1
  4% | 0% | -0.1% | .
CCOc1ccc(NC(=O)c2ccc3c(c2)C(=O)N(Cc2ccncc2)C3=O)cc1
  -26% | . | 0.7% | .
Cc1cccc(CS(=O)(=O)c2ncc(Cl)c(C(=O)Nc3ccc(F)cc3)n2)c1
  2% | ? | -1.3% | .
CCOc1cc(/C=C2/C(=N)N3OC(C)=CC3=NC2=O)ccc1OC
  -15% | 4% | 8.1% | 2
COc1ccc(OC)c(C2C(C(=O)c3ccc(C)o3)=C(O)C(=O)N2CCCN2CCOCC2)c1 (configuration not stated)
  -9% | . | -0.4% | .

# Laid out differently: results already given.
smiles: COc1ccc(/C=C/C2=NN(C)C(=O)CC2)cc1
  Rango release inh = 0%
  miR-21 FLuc = -31%
  Rango-impB inh = -1.0%
  GLA inh pH 4.5 = 0
smiles: COc1cccc(N2CCN(C3CC(=O)N(c4ccc(Cl)cc4)C3=O)CC2)c1 (configuration not stated)
  Rango release inh = -3%
  miR-21 FLuc = -6%
  Rango-impB inh = 0.0%
  GLA inh pH 4.5 = 5

# Further records.
# Every second line gives: Rango release inh | miR-21 FLuc | Rango-impB inh | GLA inh pH 4.5
CCOC(=O)C1=C(C)NC(SCC(N)=O)=C(C#N)C1c1ccccc1 (configuration not stated)
  7% | 0% | 6.4% | 7
O=C(COC(=O)C1CC1)NC(=O)c1ccccc1
  -14% | . | 0.4% | .
Cc1cnc(Nc2nc3ccccc3o2)nc1C(=O)Nc1cccc(C(F)(F)F)c1
  5% | -15% | -0.8% | 5
O=C(COc1ccc(Br)cc1)NCCCNC(=O)c1cccnc1
  1% | 19% | -2.8% | .
COc1ccc(C)cc1NC(=O)c1cc2c(=O)n3ccccc3nc2n1C
  ? | -4% | ? | -1
O=C(CCC1CCCCC1)NCCN1C2=NC[C@H](Cc3ccccc3)N2C[C@H]1Cc1ccc(O)cc1
  ? | 2% | 2.5% | -7
O=C(CNC(=O)c1cccs1)NCC(=O)OCc1c(F)cccc1Cl
  -1% | 1% | -1.8% | 6
COc1ccc(C(=O)/C=C/Nc2ccc([N+](=O)[O-])cc2)cc1
  ? | -53% | ? | -14
COc1ccc(CN(CCC(C)C)S(=O)(=O)c2ccccc2Br)c(OC)c1
  2% | . | -2.0% | .
CCc1nc(-c2ccccc2)c2ccccn12
  32% | 3% | -0.9% | 6
O=C(COc1ccccc1)OCC(=O)c1ccc(O)cc1O
  1% | . | 1.3% | .
O=C(/C=C/c1ccccc1)c1ccc2c(c1)OCCCCO2
  -12% | -50% | -1.9% | -1
O=C(CC1SC(=NCC2CCCO2)NC1=O)Nc1cccc2ccccc12 (configuration not stated)
  3% | -2% | -1.2% | 3
C=CCNC(=O)CSc1nc2sc3c(c2c(=O)n1CCCOC)CCC3
  -12% | -2% | -0.4% | .
CC1(C)CC(=O)C(C2(O)C(=O)Nc3ccccc32)CO1 (configuration not stated)
  -5% | 3% | 4.5% | .
NS(=O)(=O)c1ccc(CNC(=O)c2ccc(Br)o2)cc1
  8% | -3% | -0.3% | 4
CCC(C)(C)n1nnnc1C(c1cc(OC)ccc1OC)N1CCN(Cc2ccccc2)CC1 (configuration not stated)
  -4% | 0% | 3.8% | -7
CC(C)CCN1CCN(CCCc2ccccc2)CC1CCO (configuration not stated)
  -1% | 0% | 5.1% | .
O=C(CN1C(=O)NC2(CCCCCC2)C1=O)c1ccc2c(c1)OCCO2
  -4% | -35% | ? | -4
CCN1CCN(S(=O)(=O)c2ccc(OC)cc2)CC1
  -28% | 0% | ? | .
O=C(NCc1ccccc1Cl)C1CCCN(C(=O)Nc2ccc(F)cc2)C1 (configuration not stated)
  2% | 11% | 1.7% | .
Cc1ccccc1C(=O)NC(NCC1CCCO1)C(Cl)(Cl)Cl (configuration not stated)
  8% | 0% | -2.5% | -3
O=C(Nc1c(F)c(F)c(F)c(F)c1F)C1CCCCC1
  0% | 0% | -0.9% | 2
Cc1csc(NC(=O)c2c(O)c3cccc4c3n(c2=O)CCC4)n1
  . | 2% | . | 2
CC1(C)C2CCC(C2)C1(C)NC(=O)C[N+](C)(C)C (configuration not stated)
  -12% | 0% | 1.5% | 0
Cc1cc(C)n(CCc2nc(-c3cc4ccccc4o3)cs2)n1
  1% | -12% | 3.0% | 4
CCCCN(C(=O)COC(=O)c1nc2nc(C)cc(C)n2n1)C1CCS(=O)(=O)C1 (configuration not stated)
  -16% | . | 0.7% | .
CCn1c(SCC(=O)c2cc(OC)ccc2OC)nnc1C1CC1
  -10% | -17% | -0.1% | 8
CN(C)S(=O)(=O)c1ccc(-c2csc(N/N=C/c3ccco3)n2)cc1
  22% | ? | 1.5% | -9
CCCn1c(=O)c(C(=O)NCC2CCCO2)c(O)c2ccccc21 (configuration not stated)
  -6% | -2% | 2.0% | 7
CCOC(=O)C1CCCCN1Cc1cn(C)nc1-c1ccccc1F (configuration not stated)
  -1% | 1% | 0.9% | 2
Cc1ccc(OCc2ccc(C#N)cc2)c(C(=O)c2cc(C#N)c(=O)n(C3CC3)c2)c1
  -4% | -2% | -0.7% | 0
